Arbovirus inh – blocks arbovirus infection; inhibition, % at 10 µM; actives 0.37% (n = 200,000); arbovirus infection cell-based antiviral screen;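 active means inhibition from about 30%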;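 further: bluetongue infection of BSR cells; cell survival read as ATP light after 72 h; 0% = infected wells without compound and 100% = uninfected wells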
Mtb bLac sens – beta-lactam sensitization of Mtb H37Rv; M. tuberculosis H37Rv growth with meropenem, percent inhibition; hits of this screen are not shown here; inhibition, % at 25 µM; actives 0.27% (n = 330,000); AID 434955;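 active means about 74% or more and at least 40 points above the plate without the antibiotic, then above 30% in a dose series; inconclusive means first-round hits that could not be retested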;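 further: growth measured after seven days incubation then overnight dye step; 0% = bacteria only wells and 100% = bacteria with antibiotic; twin plates without the antibiotic show which effects depend on it; some results filed as inactive read as strong as hits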
Mtb H37Rv – M. tuberculosis H37Rv growth inhibitors, H37Rv strain (AID 1626) | M. tuberculosis H37Rv growth inhibition; higher % means a stronger effect | inhibition, % at 10 µM, or IC50 in µM where a hit was titrated | actives 0.95% (n = 220,000);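 active means confirmed in a dose series; inconclusive means inhibition above 80% but not taken into the dose series; inactive means below 80% or under 30% at every dose of the series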;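 further: bacteria incubated seven days before Alamar blue readout; 0% = bacteria only wells and 100% = bacteria with antibiotic wells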
RecA splice inh – blocks M. tuberculosis RecA intein splicing. cell-free RecA intein splicing, fluorescence. inhibition, %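 (about 9 µM by stock and volumes)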. P9WHJ3. AID 2221. actives 0.75% (n = 290,000); in the data active means inhibition above about 30%; inconclusive means no clear call, values can overlap the other calls;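 further: 0% = vehicle wells and 100% = reference inhibitor control wells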
Target sequence (P9WHJ3 whole entry, looked up, canonical isoform): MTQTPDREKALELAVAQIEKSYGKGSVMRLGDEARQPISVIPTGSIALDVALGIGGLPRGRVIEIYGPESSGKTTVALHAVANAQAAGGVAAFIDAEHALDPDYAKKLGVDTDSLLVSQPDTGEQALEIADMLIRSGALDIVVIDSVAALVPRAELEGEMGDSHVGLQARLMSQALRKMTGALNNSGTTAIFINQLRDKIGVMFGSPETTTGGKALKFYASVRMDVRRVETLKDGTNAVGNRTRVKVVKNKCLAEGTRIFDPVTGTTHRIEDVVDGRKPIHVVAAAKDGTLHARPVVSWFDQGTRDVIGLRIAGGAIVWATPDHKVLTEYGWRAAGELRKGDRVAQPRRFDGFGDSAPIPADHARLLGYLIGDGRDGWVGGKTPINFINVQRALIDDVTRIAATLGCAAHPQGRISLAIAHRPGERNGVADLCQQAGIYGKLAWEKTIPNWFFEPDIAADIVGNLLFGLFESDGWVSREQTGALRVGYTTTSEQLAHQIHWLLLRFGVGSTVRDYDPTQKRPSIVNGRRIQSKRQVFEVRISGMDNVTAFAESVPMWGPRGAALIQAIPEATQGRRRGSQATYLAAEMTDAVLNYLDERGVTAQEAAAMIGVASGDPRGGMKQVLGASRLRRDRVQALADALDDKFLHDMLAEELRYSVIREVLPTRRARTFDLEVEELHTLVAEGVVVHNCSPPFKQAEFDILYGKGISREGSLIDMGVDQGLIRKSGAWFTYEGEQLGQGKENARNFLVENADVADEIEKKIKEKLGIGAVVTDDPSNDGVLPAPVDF
YopH PTP inh – inhibitors of Yersinia enterocolitica YopH tyrosine phosphatase | inhibition, %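 (about 10 µM by stock and volumes)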 | AID 898 | fluorescence Ex485/Em525 | actives 0.16% (n = 140,000);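 active means inhibition of 50% or more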;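 further: controls were vehicle for no effect and minimum signal wells for full effect; inactives centre near -20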
Arbovirus inh repeat – further read-out of Arbovirus inh, marked with its call; inhibition, %; measured here: 10K subset replicate screen; many hits read low in the repeat;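 first of two repeat runs on a subset; 0% = infected and 100% = uninfected wells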
The depositor's hits bear a star. Not all compounds are listed, so the mix of outcomes need not match the whole.

Screening CC(=O)Nc1ccc(Oc2ccc(NC(C)=O)c(NC(C)=O)c2)cc1 returned Arbovirus inh 0, Mtb bLac sens -4 and Mtb H37Rv 0%.
`Cc1c(NC(=O)CN2CCN(c3ccc([N+](=O)[O-])cc3)CC2)c(=O)n(-c2ccccc2)n1C` gave Arbovirus inh 9, Mtb bLac sens -5, Mtb H37Rv 0% and RecA splice inh -0.3.
Screening CCOC(=O)C1C(=O)NC(c2ccccc2)=NC1c1ccccc1 (centres undefined) returned Arbovirus inh -3, Mtb bLac sens -1, Mtb H37Rv 6%, RecA splice inh -4.4 and YopH PTP inh -37.
`O=C(NCC1(c2ccccc2)CCCC1)c1ccco1` gave Arbovirus inh -6, Mtb bLac sens 4, Mtb H37Rv -6% and RecA splice inh 1.7.
Cc1ccc(S(=O)(=O)N2CCCCC2)cc1C(=O)OC1CCCCC1=O (centres undefined) was read as Mtb bLac sens -15 and RecA splice inh -1.1.
CN1CCN(CCCNC(=O)Nc2cccc3ccccc23)CC1 was read as Arbovirus inh 14, Mtb bLac sens -4, RecA splice inh 0.7 and YopH PTP inh -35.
Screening CN1C(=O)C(/C(N)=N/NC(=O)c2ccccc2)C2CC1(C)Oc1ccccc12 (centres undefined) returned Arbovirus inh 2, Mtb bLac sens 1, Mtb H37Rv -6%, RecA splice inh 6.0 and YopH PTP inh -12.
Screening Cc1nc2sccc2c(=O)n1-c1ccccc1Cl returned Arbovirus inh -3, Mtb bLac sens 8, Mtb H37Rv 9%, RecA splice inh 1.3 and YopH PTP inh -25.
CC1CN(c2ccc([N+](=O)[O-])c(NCCOc3ccccc3)c2)CCN1 (centres undefined) was read as Arbovirus inh -40, Mtb bLac sens 58 and Mtb H37Rv 7%.
Screening CCO[C@H]1OC(C(=O)NCc2ccccc2)=C[C@@H](c2coc3ccccc3c2=O)[C@@H]1CCCO returned Arbovirus inh -4, Mtb bLac sens -4, Mtb H37Rv -10% and RecA splice inh 1.5.

Some of these compounds in order of SMILES length, descending.
Screening CCO[C@H]1OC(C(=O)NCc2ccccc2)=C[C@@H](c2coc3ccccc3c2=O)[C@@H]1CCCO returned Arbovirus inh -4, Mtb bLac sens -4, Mtb H37Rv -10% and RecA splice inh 1.5.
CC1CN(c2ccc([N+](=O)[O-])c(NCCOc3ccccc3)c2)CCN1 (centres undefined) was read as Arbovirus inh -40, Mtb bLac sens 58 and Mtb H37Rv 7%.
CN1CCN(CCCNC(=O)Nc2cccc3ccccc23)CC1 was read as Arbovirus inh 14, Mtb bLac sens -4, RecA splice inh 0.7 and YopH PTP inh -35.

(cont.)
For O=C(NCc1ccccc1)C(=O)Nc1nc(-c2ccccc2)cs1 the results were Mtb bLac sens 96, Mtb H37Rv inconclusive and RecA splice inh 1.5.
Cc1ccc(NS(=O)(=O)c2c(C)ccc3nsnc23)c([N+](=O)[O-])c1 was read as Mtb bLac sens 6 and RecA splice inh 2.4.
CN(C)c1ccc(C=Nc2cnn(C)c2C(N)=O)cc1 was read as Arbovirus inh -2, Mtb bLac sens 0, Mtb H37Rv 2%, RecA splice inh 3.3 and YopH PTP inh -51.
Screening CCOC(=O)c1[nH]c(C)c(C(=O)N2CCc3ccccc32)c1C returned Arbovirus inh -17, Mtb bLac sens -14, Mtb H37Rv -3%, RecA splice inh 0.1 and YopH PTP inh -13.
For O=c1cc(C(F)F)oc2c1ccc1ccccc12 the results were Arbovirus inh 4, Mtb bLac sens 6, Mtb H37Rv 1%, RecA splice inh 0.0 and YopH PTP inh -18.
For C(=N\c1nc2ccccc2n1CCN1CCCCC1)/c1cccs1 the results were Arbovirus inh 14, Mtb bLac sens -14, Mtb H37Rv -3%, RecA splice inh 4.6 and YopH PTP inh -14.
For O=C(Nc1cccc(F)c1)/C(=C\c1ccco1)NC(=O)c1cccs1 the results were Arbovirus inh 0, Mtb bLac sens 2, Mtb H37Rv -6%, RecA splice inh -0.2 and YopH PTP inh -4.
Cc1ccc(C)c(NC(=O)CCC(=O)N/N=C/c2cccnc2)c1 was read as Mtb bLac sens 1 and RecA splice inh -2.5.
Screening O=C(N/N=C/c1c(Nc2cccc(C(F)(F)F)c2)nc2ccccn2c1=O)c1ccccc1 returned Arbovirus inh 1, Mtb H37Rv -11% and YopH PTP inh 7.
`CCN(CC)S(=O)(=O)c1ccc(Oc2ccccc2)cc1` gave Arbovirus inh -8, Mtb bLac sens -2, Mtb H37Rv 1%, RecA splice inh 3.1 and YopH PTP inh -19.
COc1ccc(Cl)c(OC)c1C(=O)NC(=O)Nc1c(F)cc(F)cc1F was read as Mtb bLac sens -2, Mtb H37Rv 5% and RecA splice inh 0.3.
O=C(Nc1ccc2nccnc2c1)Nc1ccccc1Cl was read as Mtb bLac sens 2 and RecA splice inh -5.4.
For COc1ccc(OC)c(C2C(C(=O)c3ccccc3)=C(C)Nc3nc4ccccc4n32)c1 (centres undefined) the results were Arbovirus inh -11, Mtb bLac sens 3, RecA splice inh 0.4 and YopH PTP inh -29.
`CCOC(=O)c1ccc(Nc2nc(C(=O)OCC)nc3ccccc23)cc1` gave Arbovirus inh -1, Mtb bLac sens 26, Mtb H37Rv 40%, RecA splice inh 1.3 and YopH PTP inh 14.
Cn1c(SCC(=O)Nc2ccccc2Br)nnc1-c1cnccn1 was read as Mtb bLac sens 8 and RecA splice inh -2.4.
For CC(C)C(=O)Nc1ccc(C(=O)N2CCCCCC2)cc1 the results were Arbovirus inh -1, Mtb bLac sens 1, Mtb H37Rv 2%, RecA splice inh 1.1 and YopH PTP inh -17.
`CCOC(=O)C1CCN(c2nc(-c3ccc(Br)cc3)nc3ccccc23)CC1` gave Arbovirus inh 1, Mtb bLac sens 33, Mtb H37Rv 10% and RecA splice inh -0.7.
Screening Cn1c(SCC(=O)NCCc2ccc(S(N)(=O)=O)cc2)nc2ccccc2c1=O returned Arbovirus inh 6, Mtb bLac sens -5, Mtb H37Rv -1% and RecA splice inh 0.5.
For Cc1ccc(C)c(N2CCN(C(=O)c3cc4ccccn4n3)CC2)c1 the results were Arbovirus inh 15, Mtb bLac sens 7, Mtb H37Rv 9%, RecA splice inh -9.4, YopH PTP inh -11 and Arbovirus inh repeat 2.
For O=C(Cc1ccccc1)NCC(=O)N1CCCCC1 the results were Arbovirus inh 0, Mtb bLac sens 5, Mtb H37Rv -1% and RecA splice inh -3.0.
CCc1[nH]nc2c1C(c1cccnc1)C(C#N)=C(N)O2 (centres undefined) was read as Arbovirus inh 0, Mtb bLac sens -4, Mtb H37Rv 7%, RecA splice inh 45* and YopH PTP inh 5.
`COc1cc(C(=O)Nc2ccccc2-c2nnn(CC(N)=O)n2)cc(OC)c1OC` gave Arbovirus inh 8, Mtb bLac sens 4, Mtb H37Rv -8%, RecA splice inh -1.4 and YopH PTP inh 5.
`NC(=O)/C=C/C(=O)Nc1ccc(Cl)cc1` gave Arbovirus inh 2, Mtb bLac sens -13, Mtb H37Rv -4% and RecA splice inh 7.5.
CC(=O)c1c(N)n(C)c(=O)n(C)c1=O was read as Arbovirus inh 4, Mtb bLac sens -1, Mtb H37Rv -3%, RecA splice inh -1.2 and YopH PTP inh -40.
COc1cccc(NC(=O)c2ccc(NCCCN3CCC(C)CC3)c([N+](=O)[O-])c2)c1 was read as Arbovirus inh -12, Mtb bLac sens -5, Mtb H37Rv 6% and RecA splice inh 2.3.
For Cc1ccc(S(=O)(=O)Cc2ccc(C(=O)N3CCN(Cc4ccccc4)CC3)o2)cc1 the results were Arbovirus inh -1, Mtb bLac sens 0, YopH PTP inh -31 and Arbovirus inh repeat 0.
`COc1cc(C)ccc1OCc1cc(C(=O)NC(C)Cn2cncn2)no1` (centres undefined) gave Mtb bLac sens -8 and RecA splice inh -1.4.
Screening Cc1occc1-c1nnc(SCC(=O)N2CCOCC2)n1Cc1ccco1 returned Arbovirus inh 0, Mtb bLac sens -8, Mtb H37Rv 3%, RecA splice inh -1.6 and YopH PTP inh -11.
Screening NC(=O)C1CCN(CC(O)CSc2ccccc2)CC1 (centres undefined) returned Mtb bLac sens 0, Mtb H37Rv 4% and RecA splice inh 0.1.
COc1ccccc1OCc1nc(Cc2ccc(Cl)cc2)no1 was read as Arbovirus inh 15, Mtb bLac sens 15, Mtb H37Rv 5%, RecA splice inh 4.0 and YopH PTP inh -19.
For Cc1cc(C)nc(/N=C(\N)Nc2ccc(S(=O)(=O)Nc3nc(C)cc(C)n3)cc2)n1 the results were Arbovirus inh -2, Mtb bLac sens -11, Mtb H37Rv -12% and RecA splice inh -3.0.
CC1=NNC(=O)C1CC(=O)N/N=C/C=C/c1ccccc1 (centres undefined) was read as Mtb bLac sens 2, Mtb H37Rv 2% and RecA splice inh 2.4.
`Cc1ccccc1OCCC(=O)N1CCN(S(=O)(=O)c2ccccc2F)CC1` gave Mtb bLac sens -18 and RecA splice inh 0.6.
COc1ccc(C)cc1NC(=O)CN1CCN(c2ccccn2)CC1 was read as Mtb bLac sens -1 and RecA splice inh -0.8.
For COC(=O)C(C)N=Cc1ccccc1 (centres undefined) the results were Arbovirus inh 12, Mtb bLac sens -4, Mtb H37Rv 4% and RecA splice inh -0.2.
Screening Cc1ccc(C(=O)N/C(=C\c2cccc([N+](=O)[O-])c2)C(=O)OCN2C(=O)c3ccccc3C2=O)cc1 returned Arbovirus inh 7, Mtb bLac sens 58, Mtb H37Rv 15%, RecA splice inh -1.6 and YopH PTP inh -28.
CCOc1ccc(NC(=O)CSc2n[nH]c(=O)n2-c2ccccc2)cc1 was read as Arbovirus inh 3, Mtb bLac sens -9, Mtb H37Rv -8%, RecA splice inh 1.0 and YopH PTP inh -35.
COc1ccc(NS(=O)(=O)c2cccc(C(=O)O)c2)cc1 was read as Arbovirus inh 5, Mtb bLac sens 8, Mtb H37Rv -3%, RecA splice inh -0.7 and YopH PTP inh -38.
CCOc1ccc(N2C(=O)CC(N(Cc3ccco3)C(=O)CC)C2=O)cc1 (centres undefined) was read as Arbovirus inh 5, Mtb bLac sens -7, Mtb H37Rv -9% and RecA splice inh 0.6.
COc1ccc(NC(C)=O)cc1NC(=O)CN1CCN(CC(=O)Nc2ccc(Cl)cc2)CC1 was read as Arbovirus inh -7, Mtb bLac sens -5, Mtb H37Rv -1%, RecA splice inh -5.6 and YopH PTP inh -36.
Screening CCn1c(SCC(=O)Nc2ccc(N3CCOCC3)cc2)nnc1-c1ccncc1 returned Mtb bLac sens -3 and RecA splice inh -2.3.
COc1ccc(NC(=O)c2ccc[n+]([O-])c2)cc1 was read as Mtb bLac sens 6 and RecA splice inh -0.6.
`Cc1ccc(OCC(=O)Nc2ccccc2-c2ccccc2NC(=O)COc2ccc(C)cc2)cc1` gave Arbovirus inh -7, Mtb bLac sens 3, Mtb H37Rv -1%, RecA splice inh -2.5 and YopH PTP inh -22.
O=C1NC(=S)N(C(=O)c2ccc(F)cc2)/C1=C/c1cccnc1 was read as Mtb bLac sens 3, Mtb H37Rv -2% and RecA splice inh 2.9.
Cc1cc(N2CCOCC2)n2cc(-c3ccc(F)cc3)nc2n1 was read as Arbovirus inh -4, Mtb bLac sens 0, Mtb H37Rv 58% and RecA splice inh -1.3.
Screening O=C(c1cc2c(=O)n3ccccc3nc2s1)N1CCN(Cc2ccccc2)CC1 returned Mtb bLac sens 1 and RecA splice inh -40.
Cn1c(N)c(C(=O)COC(=O)C(Cc2ccccc2)NC(=O)c2ccccc2)c(=O)n(C)c1=O (centres undefined) was read as Arbovirus inh -1, Mtb bLac sens 2, Mtb H37Rv 6% and RecA splice inh -0.4.
`CCOc1cc(C(C(=O)NCC2CCCO2)N(C(=O)Cn2nnc3ccccc32)c2ccccc2C(C)=O)ccc1O` (centres undefined) gave Mtb bLac sens 0 and RecA splice inh 0.3.
For Cc1ccc(OC(=O)CCC(=O)Nc2ccc(C)c(C)c2)cc1 the results were Mtb bLac sens -2 and RecA splice inh -0.1.
Screening CCCC(=O)Nc1c(-c2ccccc2Cl)c(=O)c2ccccc2n1C returned Mtb bLac sens -4 and RecA splice inh -0.1.
For C=CCNC(=O)/C(C#N)=C\c1cc(Cl)c(OCC)c(OC)c1 the results were Arbovirus inh 1, Mtb bLac sens 8, Mtb H37Rv 0%, RecA splice inh 6.7 and YopH PTP inh -6.
`C/C(=N\NC(=O)c1c(-c2ccccc2Cl)noc1C)c1cccc(NC(=O)C(C)C)c1` gave Arbovirus inh -4, Mtb bLac sens -2, Mtb H37Rv 6%, RecA splice inh 1.0 and YopH PTP inh -14.
CCOC(=O)c1cc(CC)sc1NC(=O)COC was read as Arbovirus inh -9, Mtb bLac sens 5, Mtb H37Rv 5%, RecA splice inh -0.4 and YopH PTP inh -5.
Screening COC(=O)NNC(=O)/C=C/c1ccccc1 returned Arbovirus inh -3, Mtb bLac sens 1, Mtb H37Rv 5%, RecA splice inh -0.9 and YopH PTP inh -30.
O=C(COc1ccccc1Cl)NCCNC(=O)c1ccco1 was read as Mtb bLac sens -4 and RecA splice inh -0.7.
